DUX4 inh = DUX4-mediated transcription inhibition; 293T-iDUX4 ZSCAN4-Gaussia luciferase reporter, 24 h; stronger effect = lower value; activity change, negative = inhibition, % (concentration not given with the values); hit rate 0.8% among 37,000;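 active = -10% or lower and over 25 points stronger than a control reporter; inconclusive = -10% or lower with a smaller gap; inactive = above -10%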;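 note: 0% = median of neutral control wells and -100% = median of positive control wells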
DUX4 inh difference = also measured in DUX4 inh; calls as there; Gaussia minus Italica difference, %; measured here: selective DUX4 reporter inhibition;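 worked out from the two reporters; negative = selective loss of the DUX4 reporter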
DUX4 inh control = further read-out of DUX4 inh, marked with its call; activity change, negative = inhibition, %; measured here: Italica tet-on control reporter;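 0 = neutral control and -100 = positive control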
Active calls of the source: *; ? = inconclusive; / = no result given. These rows are one share of the data. The share of hits here may be higher or lower than overall.

SMILES | DUX4 inh | DUX4 inh difference | DUX4 inh control
C/C=C/c1ccc([C@@H]2[C@H](CO)N(CCC(F)(F)F)C23CN(C(C)=O)C3)cc1 | -2 | -4 | 1.7
CCCC#Cc1ccc([C@H]2[C@H]3CN(C(=O)c4ccc(F)cc4)CC(=O)N3[C@H]2CO)cc1 | 11 | 17 | -6.1
O=C1CNC[C@@H]2[C@@H](c3ccc(C4=CCCC4)cc3)[C@@H](CO)N12 | 11 | -4 | 16
O=S(=O)(c1ccccc1F)N1CC[C@@H]2[C@@H](CO)Nc3ccc(C4=CCCCC4)cc3[C@@H]21 | ? | / | /
C[C@H](NC(=O)C[C@H]1CC[C@H]2[C@@H](COc3ccc(NC(=O)C4CCOCC4)cc3C(=O)N2C)O1)c1ccccc1 | 3 | -2 | 5.7
O=C(c1ccncc1)N1CC2(C1)[C@H](c1ccccc1)[C@H](CO)N2C(=O)CC1CC1 | 9 | 3 | 5.4
CO[C@H](CN(C)C(=O)c1ccc2c(c1)OCO2)[C@@H](C)CN([C@H](C)CO)S(=O)(=O)c1ccc(C)cc1 | -1 | -2 | 0.6
COc1ccc2c3c([nH]c2c1)[C@@H](CO)N(Cc1cccc(F)c1)CC31CCN(CC2CC2)CC1 | ? | / | /
O=C(Nc1ccc(Cl)c(Cl)c1)N[C@@H]1CC[C@H](CCNC(=O)c2ccc(F)cc2)O[C@H]1CO | -8 | 8 | -16
O=C(C[C@H]1CC[C@H]2[C@@H](COC[C@H](O)CN2C(=O)c2cnccn2)O1)NCc1ccc(Cl)cc1 | 7 | -3 | 10
CCCNC(=O)N1C[C@@H](C)[C@H](OC)CN(C)C(=O)c2ccc(NC(=O)C3CCC3)cc2OC[C@@H]1C | -2 | -2 | -0.3
Cc1noc(C)c1NC(=O)N(C)C[C@@H]1OCc2ccccc2-c2c(n(C)c3ccccc23)C(=O)N([C@H](C)CO)C[C@@H]1C | -5 | -1 | -4.2
O=C(C[C@H]1C[C@H]2c3cc(NC(=O)C4CCC4)ccc3O[C@H]2[C@H](CO)O1)NCc1ccc(Cl)cc1 | ? | / | /
C[C@H]1CN([C@@H](C)CO)C(=O)c2c(c3ccccc3n2C)-c2ccccc2CO[C@@H]1CN(C)C(=O)NC1CCCCC1 | ? | / | /
CCC(=O)NC[C@@H]1[C@@H](c2ccc(-c3cccc(F)c3)cc2)[C@@H](CO)N1CC1CC1 | 3 | -2 | 4.4
C[C@@H]1CN([C@@H](C)CO)C(=O)c2cc(Br)cnc2O[C@H]1CN(C)C(=O)C1CCCCC1 | 4 | 1 | 3.0
N#C[C@@H]1[C@H](c2ccc(C#Cc3ccc(F)cc3)cc2)[C@@H](CO)N1C(=O)C1CCC1 | 2 | 0 | 1.8
CCS(=O)(=O)N1CC2(CN(Cc3cc(F)ccc3F)[C@@H](CO)c3c2c2ccc(OC)cc2n3C)C1 | 5 | -9 | 14
COc1cccc(CN2CCCCN3[C@@H](CO)[C@@H](c4ccc(-c5ccccc5OC)cc4)[C@@H]3C2)c1 | 3 | -14 | 17
CCCC#Cc1ccc([C@H]2[C@@H](CO)N3C(=O)CN(C(=O)c4ccncc4)C[C@@H]23)cc1 | 16 | -1 | 17
O=C(CC1CC1)N1CC2(C1)[C@H](c1ccccc1)[C@H](CO)N2C(=O)c1cnccn1 | -1 | -4 | 2.1
C[C@H](CO)N1C[C@H](C)[C@H](CN(C)Cc2ccc(Oc3ccccc3)cc2)OCc2cnnn2CCCC1=O | ? | / | /
O=C(C[C@H]1CC[C@H]2[C@@H](COC[C@@H](O)CN2Cc2cccc(C(F)(F)F)c2)O1)NCc1ccncc1 | 2 | 11 | -9.0
COc1ccccc1CN1[C@@H]2CNC[C@H]1C2c1ccc(-c2ccc(C#N)cc2)cc1 (stereo partly specified) | 1 | -6 | 6.3
C[C@@H]1CCCCO[C@@H](CN(C)C(=O)CCC(F)(F)F)[C@@H](C)CN([C@H](C)CO)C(=O)c2cc(NC(=O)CCCCCC(=O)Nc3ccccc3N)ccc2O1 | 2 | -2 | 3.3
Cc1ccccc1S(=O)(=O)N1CC(=O)N2[C@H](CO)[C@H](c3ccc(C#CCC(C)C)cc3)[C@@H]2C1 | 8 | -2 | 9.7
O=C(C[C@H]1CC[C@@H]2[C@H](COC[C@H](O)CN2C(=O)Nc2ccc3c(c2)OCO3)O1)N1CCN(c2ccccc2)CC1 | -8 | -9 | 1.4
O=C(C[C@@H]1C=C[C@@H](NS(=O)(=O)c2ccc(F)cc2)[C@H](CO)O1)NCc1ccncn1 | -2 | -4 | 2.7
O=C(C[C@@H]1C=C[C@@H](NC(=O)c2ccc(F)cc2)[C@H](CO)O1)NCCc1ccncc1 | 3 | -1 | 4.0
O=C(CN1CCOCC1)N1CCCCN2[C@@H](CO)[C@@H](c3ccc(/C=C/c4ccccc4)cc3)[C@@H]2C1 | 0 | -13 | 13
CN1c2ccc(Br)cc2[C@@H]2[C@@H](CCN2C(=O)Cc2cccnc2)[C@@H]1CO | 6 | 0 | 5.5
O=S(=O)(c1ccccc1)N1CC2(C1)[C@H](c1ccccc1)[C@H](CO)N2CCC(F)(F)F | ? | / | /
COc1ccc(NC(=O)N(C)C[C@@H]2Oc3ccc(NS(=O)(=O)c4cccs4)cc3CC(=O)N([C@H](C)CO)C[C@@H]2C)cc1 | -3 | 1 | -4.2
CCCC#Cc1ccc2c(c1)O[C@@H](CN(C)Cc1ccccn1)[C@H](C)CN([C@@H](C)CO)S2(=O)=O | 0 | -2 | 1.3
CNC[C@H]1Oc2ncc(Br)cc2C(=O)N([C@@H](C)CO)C[C@H]1C | 1 | 1 | -0.2
O=C(C1CCC1)N1CC[C@H]2[C@H](CO)Nc3ccc(C#Cc4cccc(F)c4)cc3[C@H]21 | -6 | -29 | 24
CO[C@@H]1CN(C)C(=O)c2ccc(NC(=O)C3CC3)cc2OC[C@H](C)N(CCc2ccccc2)C[C@@H]1C | -4 | -9 | 4.5
CCCN1C[C@H](C)[C@H](OC)CN(C)C(=O)c2ccc(NS(=O)(=O)c3cn(C)cn3)cc2OC[C@H]1C | 2 | 0 | 2.6
O=C(NC[C@H]1N[C@H](CO)[C@@H]1c1ccc(C2=CCCC2)cc1)C1CC1 | -3 | -4 | 1.4
COc1ccc(CN2[C@H](CO)[C@H]3c4ccccc4N(C(=O)NC(C)C)C[C@H]32)cc1 | -1 | 2 | -3.3
O=C(c1ccccc1F)N1CC[C@@H]2[C@H](CO)Nc3ccc(C#Cc4ccccc4F)cc3[C@@H]21 | ? | / | /
C[C@@H]1CN([C@@H](C)CO)C(=O)c2c(c3ccccc3n2C)-c2ccccc2CO[C@@H]1CN(C)C(=O)[C@H](C)c1ccccc1 | -4 | 2 | -5.7
CN(C)C(=O)C[C@@H]1CC[C@@H]2[C@H](COC[C@H](O)CN2CC2CCOCC2)O1 | 1 | 5 | -4.1
CCS(=O)(=O)Nc1ccc2c(c1)C(=O)N(C)[C@@H]1CC[C@@H](CC(=O)NCc3ccc(OC)cc3)O[C@H]1CO2 | -2 | 3 | -4.2
COc1ccc(S(=O)(=O)Nc2ccc3c(c2)C(=O)N([C@@H](C)CO)C[C@@H](C)[C@@H](CN(C)Cc2ccc(C(F)(F)F)cc2)OCCCC[C@H](C)O3)cc1 | 1 | -4 | 4.9
CN(C[C@H]1N[C@H](CO)[C@H]1c1ccc(C2=CCCC2)cc1)S(C)(=O)=O | 0 | 2 | -3.0
CN1CCN(C(=O)C[C@@H]2CC[C@H]3[C@@H](COC[C@@H](O)CN3C(=O)Nc3ccc(Cl)cc3)O2)CC1 | 2 | -2 | 4.1
CO[C@H]1CN(C)C(=O)c2cc(NS(=O)(=O)c3cn(C)cn3)ccc2OC[C@@H](C)N(CCC(F)(F)F)C[C@H]1C | 1 | 3 | -1.7

Quoted from the entries so far for reference:
SMILES | DUX4 inh | DUX4 inh difference | DUX4 inh control
COc1ccc(CN2[C@H](CO)[C@H]3c4ccccc4N(C(=O)NC(C)C)C[C@H]32)cc1 | -1 | 2 | -3.3
O=C(c1ccccc1F)N1CC[C@@H]2[C@H](CO)Nc3ccc(C#Cc4ccccc4F)cc3[C@@H]21 | ? | / | /
C[C@@H]1CN([C@@H](C)CO)C(=O)c2c(c3ccccc3n2C)-c2ccccc2CO[C@@H]1CN(C)C(=O)[C@H](C)c1ccccc1 | -4 | 2 | -5.7
CN(C)C(=O)C[C@@H]1CC[C@@H]2[C@H](COC[C@H](O)CN2CC2CCOCC2)O1 | 1 | 5 | -4.1
CCS(=O)(=O)Nc1ccc2c(c1)C(=O)N(C)[C@@H]1CC[C@@H](CC(=O)NCc3ccc(OC)cc3)O[C@H]1CO2 | -2 | 3 | -4.2
COc1ccc(S(=O)(=O)Nc2ccc3c(c2)C(=O)N([C@@H](C)CO)C[C@@H](C)[C@@H](CN(C)Cc2ccc(C(F)(F)F)cc2)OCCCC[C@H](C)O3)cc1 | 1 | -4 | 4.9
CN(C[C@H]1N[C@H](CO)[C@H]1c1ccc(C2=CCCC2)cc1)S(C)(=O)=O | 0 | 2 | -3.0
CN1CCN(C(=O)C[C@@H]2CC[C@H]3[C@@H](COC[C@@H](O)CN3C(=O)Nc3ccc(Cl)cc3)O2)CC1 | 2 | -2 | 4.1
CO[C@H]1CN(C)C(=O)c2cc(NS(=O)(=O)c3cn(C)cn3)ccc2OC[C@@H](C)N(CCC(F)(F)F)C[C@H]1C | 1 | 3 | -1.7

Continuation:
SMILES | DUX4 inh | DUX4 inh difference | DUX4 inh control
O=C(C[C@H]1C[C@@H]2c3cc(NC(=O)c4ccc5c(c4)OCO5)ccc3O[C@@H]2[C@H](CO)O1)NCc1ccc(Oc2ccccc2)cc1 | ? | / | /
COc1cccc(-c2ccc3n(c2=O)C[C@@H]2[C@@H](CO)[C@H](C(=O)N(C)C)[C@H]3N2C(=O)c2ccccn2)c1 | 5 | -2 | 7.3
C[C@H]1CC=CC[C@H](c2cccc(Cl)c2)NC(=O)[C@H](C)N(C)C(=O)c2ccccc2O1 (mixture of isomers) | -4 | 1 | -4.3
O=S(=O)(c1ccccc1)N1CC2(C1)[C@H](c1ccccc1)[C@@H](CO)N2CC1CCOCC1 | 1 | -1 | 1.9
C[C@H](CO)N1C[C@H](C)[C@@H](CN(C)S(=O)(=O)c2ccc(F)cc2)Oc2ccc(N(C)C)cc2C1=O | 2 | -3 | 5.1
COCCNC(=O)C[C@@H]1CC[C@H]2[C@@H](COC[C@@H](O)CN2S(=O)(=O)c2ccccc2F)O1 | 3 | -8 | 12
O=C(CN1CCOCC1)N[C@@H]1CC[C@H](CCn2cc(C3CC3)nn2)O[C@@H]1CO | -2 | -2 | -0.4
CC(C)NC(=O)N1[C@@H]2CNc3ccccc3[C@@H]2[C@@H]1CO | 1 | 1 | 0.6
CCCC(=O)N1CCC2(CC1)CN(C(=O)c1ccc(F)cc1)[C@@H](CO)c1[nH]c3cc(OC)ccc3c12 | 10 | 8 | 1.2
C[C@H]1CN([C@@H](C)CO)S(=O)(=O)c2ccc(-c3cccnc3)cc2O[C@@H]1CN(C)C(=O)CC1CC1 | -1 | -2 | 1.5
O=C(c1ccc2c(c1)OCO2)N1C[C@H]2[C@@H](c3ccccc31)[C@H](CO)N2Cc1cccnc1 | 2 | 1 | 1.1
C[C@H]1CN([C@@H](C)CO)C(=O)c2cccc(NS(=O)(=O)c3ccc(Cl)cc3)c2O[C@H]1CN(C)C(=O)Nc1ccc2c(c1)OCO2 | 0 | -6 | 5.5
CC(=O)N1CC2(C1)[C@H](c1ccccc1)[C@H](CO)N2Cc1ccccc1 | 8 | 1 | 6.8
COCC(=O)Nc1ccc2c(c1)C(=O)N(C)[C@H]1CC[C@H](CC(=O)NC3CCCC3)O[C@@H]1CO2 | -1 | 4 | -4.9
C[C@H](CO)N1C[C@H](C)[C@H](CN(C)S(=O)(=O)c2ccsc2)OCc2ccccc2-c2c(n(C)c3ccccc23)C1=O | ? | / | /
CNC[C@@H]1OCCCC[C@@H](C)Oc2ccc(NS(=O)(=O)c3c(C)noc3C)cc2C(=O)N([C@H](C)CO)C[C@@H]1C | -1 | 2 | -3.0
C[C@@H]1CCCCO[C@H](CN(C)C(=O)CCCN(C)C)[C@H](C)CN([C@@H](C)CO)C(=O)c2cc(N(C)C)ccc2O1 | -3 | -7 | 3.4
Cc1ccccc1S(=O)(=O)NCC[C@H]1CC[C@H](NC(=O)Nc2cccc(F)c2)[C@@H](CO)O1 | -2 | -3 | 0.5
C[C@@H]1CN([C@@H](C)CO)C(=O)CCCn2cc(nn2)CO[C@@H]1CN(C)C(=O)Nc1ccc(F)cc1 | -4 | -6 | 2.6
COc1ccc2c3c([nH]c2c1)[C@H](CO)N(C(=O)CC1CC1)CC31CCN(Cc2cncnc2)CC1 | 6 | 16 | -9.7
COCCNC(=O)[C@H]1[C@H](CO)[C@H]2Cn3c(ccc(-c4cccc(F)c4)c3=O)[C@@H]1N2C(=O)NC(C)C | -2 | -6 | 4.9
O=S(=O)(N[C@H]1CC[C@@H](CCn2cc(Cc3ccccc3)nn2)O[C@H]1CO)c1ccccc1F | 8 | 5 | 2.4
COc1cccc(S(=O)(=O)Nc2ccc3c(c2)C(=O)N(C)C[C@H](OC)[C@H](C)CN(Cc2ccccc2F)[C@@H](C)CO3)c1 | ? | / | /
O=C(C[C@@H]1CC[C@H]2[C@@H](COC[C@@H](O)CN2CCC(F)(F)F)O1)NCC1CC1 | 7 | 9 | -2.2
O=C(C[C@H]1CC[C@H]2[C@@H](COC[C@@H](O)CN2CC2CCOCC2)O1)NCC1CCCCC1 | 0 | -5 | 5.5
CN1C(=O)c2cc(NS(=O)(=O)c3ccc(Cl)cc3)ccc2OC[C@@H]2O[C@H](CC(=O)O)CC[C@@H]21 | -1 | -1 | 0.0
CCS(=O)(=O)N1CC2(CN(C(=O)Nc3cccc(F)c3)[C@@H](CO)c3c2c2ccc(OC)cc2n3C)C1 | ? | / | /

Compound activity deposited in PubChem BioAssay by Broad Institute.
